YopH PTP inh: YopH tyrosine phosphatase inhibitors, primary screen, biochemical, fluorescence Ex485/Em525. YopH tyrosine phosphatase [Yersinia enterocolitica]. inhibition, %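 (about 10 µM by stock and volumes)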. 140,000 tested, 0.16% active. AID 898, 2007;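 active = inhibition of 50% or more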;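 note: controls were vehicle for no effect and minimum signal wells for full effect; inactives centre near -20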
Mtb H37Rv: M. tuberculosis H37Rv growth inhibitors, H37Rv strain (AID 1626). M. tuberculosis H37Rv growth inhibition; higher % means a stronger effect. one-dose inhibition, % at 10 µM; IC50 in µM for titrated hits. 220,000 tested, 0.95% active;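 active = confirmed in a dose series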;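 note: bacteria incubated seven days before Alamar blue readout; 0% = bacteria only wells and 100% = bacteria with antibiotic wells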
Arbovirus inh: antivirals against arbovirus infection, primary screen, cell-based, full library, 10K replicate subset | arbovirus infection cell-based antiviral screen | inhibition, % at 10 µM | 200,000 tested, 0.37% active;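 active = inhibition from about 30%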;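 note: bluetongue infection of BSR cells; cell survival read as ATP light after 72 h; 0% = infected wells without compound and 100% = uninfected wells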
RecA splice inh: Mtb RecA intein splicing inhibitors, primary screen, biochemical, fluorescence, HTS; cell-free RecA intein splicing; inhibition, %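 (about 9 µM by stock and volumes)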; 290,000 tested, 0.75% active; AID 2221, 2009; in the data active = inhibition above about 30%;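 note: 0% = vehicle wells and 100% = reference inhibitor control wells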
Target sequence (P9WHJ3 whole entry, looked up, canonical isoform): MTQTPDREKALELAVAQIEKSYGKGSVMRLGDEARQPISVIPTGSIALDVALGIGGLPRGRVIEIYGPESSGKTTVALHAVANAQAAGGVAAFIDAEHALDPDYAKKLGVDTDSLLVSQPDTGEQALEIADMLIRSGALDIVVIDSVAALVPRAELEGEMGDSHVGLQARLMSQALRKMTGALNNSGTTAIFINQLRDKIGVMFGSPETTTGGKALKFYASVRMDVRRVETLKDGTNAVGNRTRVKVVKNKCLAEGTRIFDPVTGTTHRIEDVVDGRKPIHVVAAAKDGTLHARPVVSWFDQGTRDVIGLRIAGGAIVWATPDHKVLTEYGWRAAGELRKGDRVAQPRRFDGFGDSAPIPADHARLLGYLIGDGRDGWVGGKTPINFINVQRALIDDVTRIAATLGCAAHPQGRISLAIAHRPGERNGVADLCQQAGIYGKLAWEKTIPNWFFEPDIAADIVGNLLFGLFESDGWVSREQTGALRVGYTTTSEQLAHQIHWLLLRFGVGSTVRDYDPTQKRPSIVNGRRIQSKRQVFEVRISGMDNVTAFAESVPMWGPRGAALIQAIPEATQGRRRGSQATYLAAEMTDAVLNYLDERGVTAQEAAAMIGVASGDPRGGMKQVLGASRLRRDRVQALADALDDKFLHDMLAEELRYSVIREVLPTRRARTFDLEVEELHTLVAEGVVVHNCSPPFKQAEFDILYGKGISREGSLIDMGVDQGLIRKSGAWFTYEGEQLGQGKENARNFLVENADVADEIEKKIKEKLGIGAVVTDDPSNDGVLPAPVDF
Mtb bLac sens: beta-lactam sensitization of Mtb H37Rv, H37Rv; M. tuberculosis H37Rv growth with meropenem, percent inhibition; hits of this screen are not shown here; inhibition, % at 25 µM; 330,000 tested, 0.27% active;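 active = about 74% or more and at least 40 points above the plate without the antibiotic, then above 30% in a dose series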;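 note: growth measured after seven days incubation then overnight dye step; 0% = bacteria only wells and 100% = bacteria with antibiotic; twin plates without the antibiotic show which effects depend on it; some results filed as inactive read as strong as hits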
Arbovirus inh repeat: also measured in Arbovirus inh; calls as there; inhibition, %; measured here: 10K subset replicate screen; many hits read low in the repeat;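 first of two repeat runs on a subset; 0% = infected and 100% = uninfected wells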
Starred values were filed as active, the others as inactive; . = no result given.

SMILES | YopH PTP inh | Mtb H37Rv | Arbovirus inh | RecA splice inh | Mtb bLac sens | others
CCOc1ccc(S(=O)(=O)NCc2ccncc2)cc1NC(=O)c1ccccc1 | . | . | . | 1.5 | -20
CSc1cccc(NC(=S)N(Cc2ccc(C)cc2)Cc2ccccn2)c1 | . | -10% | -7 | 6.4 | -8
CCCOc1ccc(CNC(=O)Cn2c(=O)oc3ccccc32)cc1 | -20 | 13% | 7 | 3.1 | 2
Cc1onc(-c2ccccc2Cl)c1C(=O)NCCCc1ccccc1 | . | . | . | 2.6 | 1
COc1ccc(S(=O)(=O)N2CCCOC2CNC(=O)C(=O)NC2CCCC2)cc1 (centres undefined) | . | . | . | 3.1 | -8
CCc1nnc(NC(=O)CSc2nnc(-c3ccccc3O)o2)s1 | . | . | 2 | -7.4 | 0
Cc1cc2cc(CCNC(=O)C(C)C)c(=O)[nH]c2cc1C | -20 | -1% | . | -0.3 | 2
O=C(CSc1nc2sc3c(c2c(=O)n1-c1ccccc1)CCCC3)N/N=C/c1ccc(C(=O)O)cc1 | . | . | . | -4.5 | 3
Cc1ccc(C(=O)NC2CCN(CCCC(=O)c3ccc(F)cc3)CC2)cc1 | . | . | . | -1.3 | -5
Cc1nc(-c2cccc(NC(=O)C3CCCCC3)c2)cs1 | . | -1% | -7 | 3.2 | -13

Reprinted from the part before: 6 entries; new compounds follow.
SMILES | YopH PTP inh | Mtb H37Rv | Arbovirus inh | RecA splice inh | Mtb bLac sens | others
COc1ccc(S(=O)(=O)N2CCCOC2CNC(=O)C(=O)NC2CCCC2)cc1 (centres undefined) | . | . | . | 3.1 | -8
CCc1nnc(NC(=O)CSc2nnc(-c3ccccc3O)o2)s1 | . | . | 2 | -7.4 | 0
Cc1cc2cc(CCNC(=O)C(C)C)c(=O)[nH]c2cc1C | -20 | -1% | . | -0.3 | 2
O=C(CSc1nc2sc3c(c2c(=O)n1-c1ccccc1)CCCC3)N/N=C/c1ccc(C(=O)O)cc1 | . | . | . | -4.5 | 3
Cc1ccc(C(=O)NC2CCN(CCCC(=O)c3ccc(F)cc3)CC2)cc1 | . | . | . | -1.3 | -5
Cc1nc(-c2cccc(NC(=O)C3CCCCC3)c2)cs1 | . | -1% | -7 | 3.2 | -13
O=C(O)c1c(-c2ccccc2)c(-c2ccccc2)nc2ccccc12 | . | 5% | -1 | 0.0 | 0
O=C(Nc1ccnn1C1CCN(C(=O)Cc2ccccc2F)CC1)C1CC1 | . | . | . | -0.9 | -3
CCN1CCN(C(=S)Nc2cc(S(=O)(=O)N(CC)CC)ccc2C)CC1 | . | -5% | 8 | 0.2 | -1
CC(C)(C)C1CCc2c(sc3ncn(N)c(=N)c23)C1 (centres undefined) | . | 14% | . | -0.7 | -1
CCCCC1CCC(/C(N)=N/O)CC1 (centres undefined) | -21 | -2% | -37 | 12 | -9
COCc1cc(C)nc2sc(C(=O)NC3CCCCC3)c(N)c12 | -40 | 7% | -5 | -0.4 | 49
CCCCCCNC(=O)C(C(=O)OCC)C1CCCCC1 (centres undefined) | -43 | 7% | 0 | -1.2 | -1 | Arbovirus inh repeat=-5
Cc1cc(C)nc(Nc2nc3ccccc3s2)n1 | . | 7% | 1 | -3.2 | -4
Cc1ccc(Nc2nc(N)c([N+](=O)[O-])c(N3CCOCC3)n2)cc1 | -20 | 6% | 1 | 1.7 | -2
O=C(NCc1ccc(OC(F)(F)F)cc1)C1CC(c2ccccc2C(F)(F)F)=NO1 (centres undefined) | . | 0% | . | -0.3 | 1
c1ccc(-c2nc(CSc3nnc(-c4cccs4)o3)cs2)cc1 | -49 | 2% | -3 | 1.0 | 0
CC(C)CC(NC(N)=O)C(=O)Nc1ccc2c(c1)OCO2 (centres undefined) | . | -4% | -18 | 8.6 | 0
Cc1ccccc1S(=O)(=O)c1c(C)cc(C)n(CC(C)C)c1=O | -1 | -8% | -12 | 3.1 | -2
Cc1ccc(-n2c(COc3c(C)cccc3C)nnc2SCC(=O)Nc2nccs2)cc1 | -42 | -6% | 0 | -2.1 | 2
COC(=O)c1[nH]c2cccc(Cl)c2c1NC(=O)CN(C)C1CCCCC1 | -34 | 6% | -17 | . | -5
Cc1cc(C)n(CC(C)(O)c2ccccc2)n1 (centres undefined) | . | . | . | -3.1 | 2
Cn1c(=O)c2c(nc(N3CCCC3)n2CC(O)CO)n(C)c1=O (centres undefined) | -50 | -2% | 10 | 0.0 | 1
O=C(Nn1nnnc1Nc1ccccc1)C12CC3CC(CC(C3)C1)C2 | -27 | 2% | 5 | 1.7 | -3 | Arbovirus inh repeat=23
CCCCCn1c(CN2CCCCC2C)nc2c1c(=O)n(C)c(=O)n2C (centres undefined) | -34 | 4% | -7 | 0.4 | 39
O=C(c1ccc(Br)o1)N1CCN(c2ccccn2)CC1 | -19 | -4% | -3 | 0.5 | 6
CC(C)C1C2=C(CC(C)(C)CC2=O)ON1c1ccccc1 (centres undefined) | 29 | 13% | -4 | -4.6 | 5
N#CC(C#N)=Cc1cnc(N2CCN(c3ccccc3)CC2)s1 | . | . | . | 1.2 | 4
Cc1cc(/C=C2\C(=N)N3C(SCc4ccccc4)=NSC3=NC2=O)c(C)n1Cc1ccccc1 | -23 | 9% | 14 | -0.9 | -1
NS(=O)(=O)c1ccc(NC(=S)NC(=O)c2cccnc2)cc1 | . | 3% | -2 | 20 | -5
O=[N+]([O-])c1ccc(S(=O)(=O)NCC2CC3CCC2C3)cc1 (centres undefined) | . | . | . | -1.7 | 4
CCCCNC(=O)Nc1cc(C(=O)OC)ccc1C | -23 | 11% | -5 | 0.2 | -6 | Arbovirus inh repeat=-1
O=C(/C=C/c1cccs1)Nc1ccncc1 | -20 | -3% | 6 | -0.6 | 2
CCc1cc(=O)[nH]c(-n2[nH]c(-c3ccccc3)cc2=O)n1 | . | 5% | -6 | 4.2 | -1
CC1=C(C(=O)N2CCOCC2)C(c2ccc(-c3ccccc3)cc2)NC(=S)N1 (centres undefined) | . | 5% | 13 | 10 | 2
COc1ccc(CNc2ccc3c(c2)CCC3)cc1OC | 50 | 45% | 11 | -1.2 | 95
Cc1onc(-c2ccccc2Cl)c1C(=O)N(C)Cc1ccccc1 | . | . | . | -2.1 | 10
Cc1ccc(C(C)C)c(OCC(=O)Nn2c(=O)[nH]c3ccccc3c2=O)c1 | -24 | 0% | -4 | -1.0 | -3
C/C(=N\NC(=O)c1nnn(-c2nonc2N)c1CN1CCCCC1)c1ccccc1O | . | . | . | 5.0 | 6
Cc1ccc(-c2nn(C)c(=O)c3ccccc23)cc1S(=O)(=O)NCCN1CCOCC1 | 9 | -11% | -2 | -3.7 | -16
O=C(Cn1nc(C(F)(F)F)c2c1CCCC2)Nc1ccc2c(c1)OCO2 | -30 | -1% | -4 | 2.1 | -28
CS(=O)(=O)N(CC(=O)N1CCN(Cc2ccccc2)CC1)c1ccccc1Br | . | . | . | 0.5 | 5
Cc1ccc(N2C(=O)[C@@H]3[C@H](C2=O)C2c4ccccc4C=NN2[C@@H]3C(=O)c2ccc(Cl)cc2)cc1 (some centres undefined) | -5 | 9% | -2 | -1.6 | 5
COCCNC(=O)c1ccccc1NC(=O)c1ccccc1N(C)S(=O)(=O)c1ccc(C)cc1 | -14 | 2% | -5 | -8.8 | 4
COP(=O)(OC)C(Nc1ccc(Cl)cc1)c1ccccc1 (centres undefined) | . | . | . | 1.9 | 5
CC(C)OCCCNS(=O)(=O)c1ccc2c(c1)oc(=O)n2C | -32 | -1% | -3 | -0.6 | -3 | Arbovirus inh repeat=0

Reprinted from the part before: 3 entries; new compounds follow.
SMILES | YopH PTP inh | Mtb H37Rv | Arbovirus inh | RecA splice inh | Mtb bLac sens | others
COCCNC(=O)c1ccccc1NC(=O)c1ccccc1N(C)S(=O)(=O)c1ccc(C)cc1 | -14 | 2% | -5 | -8.8 | 4
COP(=O)(OC)C(Nc1ccc(Cl)cc1)c1ccccc1 (centres undefined) | . | . | . | 1.9 | 5
CC(C)OCCCNS(=O)(=O)c1ccc2c(c1)oc(=O)n2C | -32 | -1% | -3 | -0.6 | -3 | Arbovirus inh repeat=0
O=C1N/C(=C\c2nc3ccccc3s2)c2ccccc21 | . | -6% | . | -7.0 | 1
COc1ccc(/C=C(\NC(=O)c2ccc(OC)cc2)C(=O)Nc2ccccc2C(=O)O)cc1 | . | . | . | -1.9 | 6
O=C(C1CCCN(S(=O)(=O)c2cccs2)C1)N1CCc2ccccc2C1 (centres undefined) | -26 | -4% | -10 | 6.4 | -8
C=CCC1(N(C(C)=O)c2ccccc2)CCCCC1 | . | -4% | 6 | -0.4 | -6
COc1ccc(N/C(C)=C/C(=O)c2ccccc2)cc1 | -33 | 91% | -4 | 8.6 | 89
CCOc1ccc(C2=NNC(c3cccs3)=Nc3ccc(OC)cc32)cc1 | 4 | 2% | 5 | 8.4 | 92
Cn1cccc1/C=N/NC(=O)CNc1cccc2ccccc12 | . | -2% | . | 1.2 | -4
Cc1ccc(-c2nnc(Nc3ccc(CC(N)=O)cc3)c3ccccc23)cc1S(N)(=O)=O | . | . | . | 1.9 | 3
OCCNc1cc(-n2nc(-c3ccccc3)cc2-c2ccccc2)ncn1 | -21 | -7% | 6 | -0.1 | -3
CCNS(=O)(=O)c1ccc(S(=O)(=O)N(Cc2ccccn2)C2CCCCC2)cc1 | -1 | -8% | 2 | -1.3 | -5
CCn1ncc(C2=NOC(C(=O)Nc3c(C)nn(Cc4ccc(F)cc4)c3C)C2)c1C (centres undefined) | -2 | 3% | 10 | 1.1 | 4 | Arbovirus inh repeat=5
Cc1cccc(N2CCN(c3nnc(C(F)(F)F)s3)CC2)c1 | . | -2% | . | 1.8 | -1
CCN(Cc1cc2ccccc2[nH]c1=O)C(=O)C1CCCCC1 | -41 | -4% | 5 | 0.8 | -8
Nc1cc(=O)[nH]c(=O)n1Cc1ccccc1 | -4 | -2% | 6 | -0.6 | -7
CCOc1ccc(C(C)NC(=O)Nc2ccccc2C(=O)OC)cc1 (centres undefined) | -21 | 8% | 14 | 1.3 | 0
Cc1cccc(N2CCN(c3nc4nonc4nc3N3CCSCC3)CC2)n1 | . | 0% | -9 | 1.7 | -3
CCOc1cccc2cc(-c3nnc(NCc4ccc5c(c4)OCO5)s3)c(=O)oc12 | -23 | 1% | -4 | -31 | 1
O=C(Nc1ccccc1NC(=O)c1ccc(F)cc1)c1ccc(F)cc1 | . | . | . | -0.8 | -2
COc1ccc(-n2c(/C=C3/C(=O)Nc4ccccc43)nc3ccccc3c2=O)cc1 | . | 5% | -3 | -0.9 | 1
CCC1CCCCN1Cc1c(O)ccc2c(=O)c(-c3ccccc3)coc12 (centres undefined) | . | . | . | 0.3 | 0
COc1cc(/C=N/NC(=O)Cn2ccc(C(F)(F)F)n2)cc(OC)c1OC | . | -3% | 0 | -3.1 | 0
CC/C(Cc1ccccc1)=N\NC(=O)c1cc([N+](=O)[O-])cc([N+](=O)[O-])c1 | . | 11% | 7 | -1.3 | 58
Cc1ccccc1NC(=O)COC(=O)CCc1ccccc1 | . | -1% | 12 | 0.0 | 0
O=C1C2CC=CCC2C(=O)N1c1ccc(N2CCN(c3ccccn3)CC2)c([N+](=O)[O-])c1 (centres undefined) | . | -6% | -3 | -1.1 | -5
CCCCn1c(SCC(=O)Nc2nnc(C)s2)nnc1-c1ccoc1C | -18 | -9% | 7 | -0.7 | -4
Fc1ccccc1N1CCN(Cc2nc(-c3ccc(Cl)cc3Cl)no2)CC1 | -20 | -8% | 31* | . | -5
CC(=O)c1c(C)[nH]c(C(=O)OCC(=O)Nc2cccc(S(=O)(=O)N(C)C)c2)c1C | . | 4% | 1 | -1.8 | -5
CCOc1cc(C(=O)Nc2c(C)ccc3nsnc23)cc(OCC)c1OCC | -6 | -3% | -1 | 4.7 | -7
c1ccc(-c2nn3nnnc3c3ccccc23)cc1 | -35 | -11% | 0 | -12 | 62
CCc1cc(C(=O)Cc2ccccn2)c(O)cc1O | . | . | . | 4.3 | 0
Cc1cc(C)cc(NC(=O)N2CCc3ccccc3C2)c1 | . | . | . | -1.6 | 8
COc1cccc(-c2nnc(-c3ccco3)o2)c1 | -29 | -8% | 3 | 1.4 | -4
O=S(=O)(c1ccc(Oc2ccccc2)cc1)N1CCOCC1 | 18 | 1% | -5 | 0.7 | -13
CCOc1ccc(/C=C/C(=O)Nc2ccc(C(N)=O)cc2)cc1OC | -26 | 1% | -9 | -3.6 | 1
COc1ccccc1-c1cc(C(=O)NC(C)c2ccccc2)no1 (centres undefined) | -25 | 1% | -2 | . | 2
CCOC(=O)c1ccc(NC(=O)C2CC3CCC2C3)cc1 (centres undefined) | . | . | . | 6.5 | 66

Screening results as filed in PubChem.

Some of the compounds tested, so the mix of outcomes need not match the whole.
